Compound activity: PubChem, National Center for Advancing Translational Sciences (NCATS)
gsp ag = gsp mutant agonism; Potency, µM (series often up to 76.9 µM), without a hit: at the highest dose activation (cAMP increase), actives largely listed as activators; 340,000 tested, 0.13% active; gsp mutant cells, cAMP HTRF, 30 min; control for the full effect not named in the record; active = well fitted activation curve with a large enough effect; inconclusive = small, poorly fitted or top-dose-only effect, or another doubt; inactive = no such curve, though single readings can be large or run the other way; cell line not stated here;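 also: phosphodiesterase inhibitor Ro 20-1724 added with compounds to block cAMP breakdown; potency is read from the fitted curve at half-maximal effect; nearly all actives have a fitted effect of over 60% in size; about a fifth of the inactives were tested at one dose only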
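Cells in DMEM/10% FBS with G418 were pretreated with compounds in DMSO plus […] (300 uM stock) for 30 min at 37C. cAMP was measured by HTRF (cAMP-d2 plus anti-cAMP antibody-K) after 30 min at room temperature.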
gsp antag = antagonists of gsp mutant (McCune-Albright syndrome); gsp-mutant cells, cAMP HTRF, 30 min; control for the full effect not named in the record; Potency, µM (series often up to 76.9 µM), for inactives: at the top dose activity change, negative = inhibition, hits mostly inhibitors; 340,000 tested, 0.4% active; active = falling curve of any shape with a large fitted effect; inconclusive = falling curve, mostly with a smaller effect; inactive = flat or rising curve; cell line not stated here;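 also: intracellular cAMP measured with PDE inhibitor Ro 20-1724 present during compound exposure; potency is read from the fitted curve at half-maximal effect; % is scaled to controls: 0 for no effect and ±100 for the full control effect; nearly all actives have a fitted effect of over 65% in size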
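Cells in G418 medium, seeded 16-24 h, 37C; buffer exchange to DPBS + 1 mM CaCl2, 0.5 mM MgCl2, 0.05% BSA; cpds in DMSO + […] (300 uM stock), 30 min 37C; HTRF cAMP detection.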
ClpP mod = qHTS Assay for Activators of ClpP | ATP-dependent Clp protease proteolytic subunit (Bacillus subtilis (strain 168)), P80244 | purified B. subtilis ClpP, FRET peptide cleavage, 20 min | Potency, µM (titrated, usually from 57.5 µM), for inactives: at the highest dose activity change, negative = active | 340,000 tested, 1.9% active | AID 651965, 2013; active = well fitted falling curve with a large enough effect; inconclusive = small, poorly fitted or top-dose-only effect; inactive = no such curve, though single readings can be large or run the other way; also: potency is read from the fitted curve at half-maximal effect; the source files actives as falling curves though it sought activators and does not explain the sign; nearly all actives have a fitted effect of over 65% in size; many hits overshoot -100%
Target sequence (P80244 whole entry, looked up): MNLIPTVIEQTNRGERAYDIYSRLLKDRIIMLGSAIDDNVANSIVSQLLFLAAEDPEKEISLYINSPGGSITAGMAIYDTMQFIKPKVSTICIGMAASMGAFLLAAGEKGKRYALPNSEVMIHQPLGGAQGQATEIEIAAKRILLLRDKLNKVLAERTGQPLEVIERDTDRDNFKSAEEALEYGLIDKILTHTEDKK
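Buffer: 100 mM Tris/HCl pH8, 100 mM KCl, 0.05% low protease BSA, 2.5% glycerol, 0.01% Tween-20. ClpP 10 microg/mL final; 20 min RT; delta FRET normalized to ADEP and DMSO controls.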
TRPV1 PAM = enhances activation of the human vanilloid receptor TRPV1; TRPV1-expressing cells, Fluo-8 calcium influx, capsaicin EC20 potentiation; host cell line not named in the record; control for the full effect not named in the record; potentiation, % at 8.33 µM; 320,000 tested, 0.02% active; active means potentiation above 80%; inconclusive means 30% to 80%; inactive means below 30%; also: 0% is about no effect
Target sequence (Q8NER1 whole entry, looked up): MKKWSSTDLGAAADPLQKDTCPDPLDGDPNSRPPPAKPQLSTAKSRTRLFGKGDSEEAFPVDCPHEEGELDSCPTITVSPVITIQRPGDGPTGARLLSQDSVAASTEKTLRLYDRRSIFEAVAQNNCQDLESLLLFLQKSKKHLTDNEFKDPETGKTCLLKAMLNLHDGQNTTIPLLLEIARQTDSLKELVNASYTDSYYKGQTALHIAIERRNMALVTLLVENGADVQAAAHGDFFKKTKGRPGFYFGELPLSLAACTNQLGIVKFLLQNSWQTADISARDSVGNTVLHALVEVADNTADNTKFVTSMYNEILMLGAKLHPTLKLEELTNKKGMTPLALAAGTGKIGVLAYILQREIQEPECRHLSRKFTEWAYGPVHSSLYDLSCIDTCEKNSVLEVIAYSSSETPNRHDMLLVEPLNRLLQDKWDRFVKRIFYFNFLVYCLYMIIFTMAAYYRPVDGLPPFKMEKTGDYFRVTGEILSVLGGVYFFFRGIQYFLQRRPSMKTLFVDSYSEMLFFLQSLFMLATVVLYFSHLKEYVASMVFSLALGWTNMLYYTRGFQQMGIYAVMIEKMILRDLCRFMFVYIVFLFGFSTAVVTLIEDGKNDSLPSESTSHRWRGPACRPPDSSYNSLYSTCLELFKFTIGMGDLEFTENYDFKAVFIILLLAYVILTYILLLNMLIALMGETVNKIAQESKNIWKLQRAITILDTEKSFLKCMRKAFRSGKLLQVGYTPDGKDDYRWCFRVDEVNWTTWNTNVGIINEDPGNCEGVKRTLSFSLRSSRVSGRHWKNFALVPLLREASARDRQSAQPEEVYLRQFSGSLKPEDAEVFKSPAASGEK
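TRPV1-expressing cells were cultured overnight at 35.5C and loaded with Fluo-8 calcium dye for 40 to 90 min at room temperature. After a 10 s baseline, compound was added and calcium influx was read kinetically for 3 min (ex 480/em 520 nm).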
Sfp PPTase inh = Sfp phosphopantetheinyl transferase inhibition. Q9F4F7. Biochemical Sfp PPTase activity, qHTS. Potency, µM, for the others: max response, negative = inhibition, hits mostly inhibitors. 310,000 tested, 3.5% active. AID 1490; active = well fitted inhibition curve with a large enough effect; inconclusive = small, poorly fitted or top-dose-only effect, or another doubt; inactive = no such curve, though single readings can be large or run the other way;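 also: the enzyme is Sfp with the accession as filed and its product quenches rhodamine fluorescence; potency is read from the fitted curve at half-maximal effect; 0% = enzyme reaction without inhibitor and -100% = no enzyme wells; top concentration of the series not given in the record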
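With Hepes-Na pH 7.6 buffer containing 10 mM MgCl2, Sfp (15 nM) modified BHQ-2-YbbR (12.5 uM) using rhodamine-CoA (5 uM). Two reads 30 minutes apart at 525/598 nm yielded each well's rate.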
Menin MLL FP FL = inhibitors of human menin-MLL interaction, wild-type MLL peptide | Fluorescence polarization, fluorescein-MLL peptide displacement from menin | FP activity change, % at 61.4 µM | 290,000 tested, under 10 active | AID 1766; inconclusive = falling polarisation curve, or a change in total fluorescence; inactive = total fluorescence flat and polarisation flat or rising; no compound was filed as active; the % refers to the polarisation; negative = inhibition;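 also: % of control where 0% means no effect; inhibitors lower the polarisation; unlabelled MLL peptide was the positive control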
TRPML1 inh = inhibitors of human TRPML1 channel; activity change, negative = inhibition, % (no concentration beside the values); Q9GZU1; 390,000 tested, 0.02% active; TRPML1-inducible cells, Ca2+ dye fluorescence, FDSS; active compounds read low; inhibition of EC80 agonist-evoked calcium signal; in the data active means activity change below about -50%; inconclusive means about -30% to -50%; inactive means above about -30%;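 also: stimulus is agonist 54-4 at its EC80 concentration; % is scaled to controls: 0 for no effect and ±100 for the full control effect; compound concentration not given in the record; the text of the record puts the active cut at -80%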
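Calcium fluorescence in TRPML1-DL cells induced overnight with Tet: a 110 s read after compound pin addition, then a 110 s antagonist read after challenge with 54-4 at 4 uM final (EC80).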
An asterisk follows results filed as active; u = inconclusive; x = not tested or not shown; [ ] = dose if it differs, or a comment.

smiles,gsp ag,gsp antag,ClpP mod,TRPV1 PAM,Sfp PPTase inh,Menin MLL FP FL,TRPML1 inh
COc1cc2ncnc(NCc3ccc(Cl)cc3)c2cc1OC,3.8%,-6.0%,-18.1%,17.5,-16.2%,-1.7,1.1
CN(C)c1ccc(C2Nc3cccc4cccc(c34)N2)cc1,u,4.2%,-7.0%,2.5,-24.8%,-11.6,18.2
COc1cccc(CN2CCC(Oc3ccc(C(=O)N4CCCCC4)cc3)CC2)c1O,-0.7%,18.5%,-0.8%,u,9.3%,x,4.8
CC(NC(=O)c1ccccc1F)c1nnc(SCc2nc3ccccc3c(=O)[nH]2)n1C (configuration not stated),-0.2%,2.0%,x,2.6,-12.2%,2.1,-9.7
Cc1ccc(C)c(N2CCN(C3CCCC(C)C3)CC2)c1 (configuration not stated),11.4%[15.4 µM],2.4%,u,u,9.8%,12.6,32.8
COc1ccc(CCNC(=O)C(C)OC(=O)c2ccco2)cc1OC (configuration not stated),28.8%,6.6%,0.7%,0.1,13.2%,3.6,-1.2
COc1ccc(CSc2nnnn2-c2ccc(C(N)=O)cc2)cc1[N+](=O)[O-],8.1%,-3.8%,-2.1%,-12.6,9.2%,0.1,-4.3
CCn1c(SCC(=O)NCC2CCCO2)nnc1-c1ccccc1 (configuration not stated),0.0%,-2.4%,-1.4%,-1.3,16.2%,-0.5,-5.2
COc1ccc(/C=N/NC(=O)c2cccc([N+](=O)[O-])c2)cc1O,-13.8%[15.4 µM],2.2%,x,-0.7,21.8%,1.9,6.3
CN(C)c1ccc(N=Cc2cccn2C)cc1,4.1%,u,-2.2%,u,-26.2%,2.6,15.8
Cc1cc(=O)oc(C)c1C(=O)Nc1cccc2ccccc12,-23.2%,0.4%,0.8%,-4.0,4.1%,1.0,-0.3
COc1ccc(C(=O)NCc2nnc(SCC(=O)N3CCCc4ccccc43)o2)cc1OC,-57.8%[inhibitor],-4.3%,0.4%,9.4,17.2%,-0.4,-5.2
Cc1ccc(S(=O)(=O)N2CCN(C(=O)COC(=O)CCc3ccccc3)CC2)c(C)c1,0.8%,6.8%,1.7%,-1.9,x,x,2.0
C[C@@H]1CCCCO[C@H](CN(C)Cc2ccc(C(=O)O)cc2)[C@@H](C)CN([C@H](C)CO)C(=O)c2cc(NC(=O)CCC(F)(F)F)ccc2O1,u,x,1.9%,x,x,x,-0.4
CCC(=O)Nc1cccc(C(=O)c2ccccc2)c1,-5.9%,-10.8%,-0.2%,-22.2,16.8%,5.6,2.7
NC(=O)CCC(NC(=O)c1ccc(Cl)cc1)C(=O)O (configuration not stated),-64.4%[inhibitor],5.7%,-0.4%,-8.3,13.5%,-4.9,7.6
COc1ccc(CCC(=O)Nc2nnc(C)s2)cc1,17.5%[15.4 µM],0.5%,x,x,x,x,-1.9
CCOC(=O)c1ccccc1-c1csc(NS(=O)(=O)c2ccc(Cl)cc2)n1,-9.2%,-24.2%,-0.8%,u,-0.8%,0.9,9.5
COc1ccc(S(=O)(=O)N2CCN(CC(=O)Nc3ccccc3OC)CC2)cc1,15.3%,6.2%,-2.6%,u,10.0%,x,-2.9
O=C(N=Nc1c(O)[nH]c2ccc(Br)cc12)c1cc(-c2cccs2)nc2ccccc12,6.2%[15.4 µM],1.8%,x,-0.8,u,-7.3,-17.3
NS(=O)(=O)c1ccc(CNS(=O)(=O)c2cc(Cl)ccc2Cl)cc1,14.9%[15.4 µM],1.3%,x,-0.9,13.5%,-1.9,-5.5
CCOc1ccc(/C=N/NC(=O)c2ccc(O)cc2)cc1CN1CC2CC(C1)c1cccc(=O)n1C2 (configuration not stated),x,39.8µM*,-3.7%,-6.7,x,x,-1.6
CNC(=S)NC1CC2CCCC(C1)N2Cc1ccc(C)cc1 (configuration not stated),0.5%,-3.4%,-1.1%,-3.7,11.2%,-1.8,17.2
CN(Cc1ccnc2ccccc12)C(=O)C1CCC(=O)N(Cc2ccccc2F)C1 (configuration not stated),-18.1%[15.4 µM],13.6%,-1.8%,13.0,11.7%,x,-5.9
Cc1n[nH]c(=O)n1-c1cccc(C(F)(F)F)c1,-14.2%,9.9%,0.3%,18.7,21.5%,2.2,31.2
CCCN(CCC)CCNC(=O)C1CCN(Cc2nc(-c3ccc(Cl)cc3)oc2C)CC1,16.6%,-0.8%,-1.8%,-0.1,9.0%,0.3,-5.7
CC(=O)N(CC#CCN(C(C)=O)c1ccccc1)c1ccccc1,2.3%,x,-5.8%,x,x,x,1.8
O=C1CC(C(F)(F)C(F)(F)C(F)(F)C(F)F)=Nc2ccccc2N1,-6.2%,-11.0%,-0.1%,-12.5,11.3%,1.6,-0.3
COc1ccc(C(=O)Nc2ccccc2NC(=O)c2ccc(OC)cc2)cc1,-21.6%,-22.2%,-0.3%,x,x,x,-9.4
OC(COc1ccc(CNCCc2ccccc2F)cc1)CN1CCCCC1 (configuration not stated),20.2%,-2.0%,-2.7%,3.8,0.3%,-1.1,20.3
CCN(CC)c1ccc2c(Nc3ccccc3)c(C=O)c(=O)oc2c1,-3.6%,u,-0.5%,-9.0,26.4%,0.8,-7.8
Cc1nn(CCC(=O)NNC(=S)Nc2ccc(Cl)cc2)c(C)c1[N+](=O)[O-],8.1%,-14.3%,0.1%,-6.3,2.9%,-0.4,-7.0
COc1ccc(-c2c[nH]c(=O)[nH]c2=O)cc1OC,2.6%[15.4 µM],x,x,2.5,4.5%,-0.5,-6.0
CCOC(=O)c1[nH]c(=S)n(-c2ccccc2)c1C(=O)OCC,-33.0%[inhibitor],x,-1.1%,x,x,x,16.7
Cc1ccccc1C(=O)c1c[nH]c(C(=O)NCc2cccs2)c1,-5.1%,-2.7%,-1.0%,2.1,2.9%,-2.3,1.5
CN1CCN(c2cnn(-c3ccccc3)c(=O)c2Br)CC1,-14.3%,2.4%,0.6%,5.4,11.5%,-0.7,5.5
O=C1c2ccccc2C(=O)N1CCn1ccnc1,1.5%[15.4 µM],0.6%,-7.1%,-3.1,13.4%,-5.1,31.1
Cc1ccc(S(=O)(=O)Nc2cc(C(=O)NCCN(C)C)ccc2N2CCCCC2)cc1,-18.4%,4.6%,-11.3%,-15.6,-20.3%,-3.9,7.9
COc1cc(C(=O)NCc2nnc(SCC(=O)Nc3ccc4c(c3)OCO4)o2)cc(OC)c1OC,6.5%[15.4 µM],7.3%,x,2.4,18.8%,0.2,31.8
COCc1cc(SC2CCCCC2)nc(C)n1,2.8%,11.9%,-1.3%,-3.7,11.5%,10.5,12.3
Cc1ccc(-c2noc(CCC(=O)Nc3ccc(C)cn3)n2)cc1,-18.2%,10.3%,-1.0%,13.1,9.9%,-4.1,8.5
Cc1cc(C)c2cc(C(=O)N3CCc4ccccc4C3)[nH]c2c1,-0.5%[15.4 µM],-8.0%,-14.4%,-11.9,-27.6%,0.9,1.1
O=C(NCCOc1ccccc1)c1ccccc1SCC(=O)N1CCCC1,27.9%,-3.0%,-1.0%,-7.0,x,x,-4.6
CCOc1ccc(Cc2c(O)nc(SC)[nH]c2=O)cc1,-34.2%[inhibitor],x,0.4%,x,x,x,2.3
CCOC(=O)c1cc2c(=O)n3ccccc3nc2n(C(C)C)c1=NC(=O)c1ccncc1,7.2%,-4.2%,28.2µM*,3.1,14.6%,6.8,4.8
CC1CCN(C(=O)CSCC(=O)Nc2nc(-c3cccs3)cs2)CC1,0.2%,u,-0.1%,19.5,-1.0%,0.9,4.9
COc1ccccc1/C=C/C1(C(=O)NC2CCCC2)CC(=O)N1c1ccc(C)cc1 (configuration not stated),-28.9%,-1.7%,-2.8%,2.2,10.3%,1.2,0.0
CC(C)Oc1ccc(C(=O)Nc2cccc(S(=O)(=O)N3CCCC3)c2)cc1,14.8%,u,x,x,x,x,102.2
COc1ccc(CN2CCN(Cc3ccco3)CC2)c(OC)c1,-9.3%[15.4 µM],-2.8%,-0.7%,2.9,56.2µM*,0.2,-3.0
Cc1ccc(CN(CC(=O)NCCc2ccccc2)C(=O)c2csnn2)cc1,-8.1%,-3.1%,x,5.2,16.0%,-3.3,6.4
COc1ccccc1OCc1nnc(SCC(N)=O)n1-c1ccccc1,-14.6%,3.3%,0.2%,-13.0,11.1%,3.2,x
Nc1nonc1-c1nc2ccccc2n1CC(=O)N1CCCCC1,13.0%,0.4%,-0.7%,6.4,15.9%,8.8,-13.0
O=C(CN(C(=O)Cn1nnc(-c2ccc(F)cc2)n1)c1cccc(F)c1)NC1CCCC1,12.2%,-14.6%,x,4.5,29.0%,1.2,20.1
CN(C)c1ccc(CNc2ncnc3sccc23)cc1,4.0%[15.4 µM],-16.1%,x,5.0,-6.3%,1.4,-4.2
COc1ccc(N2CCN(C(=O)c3ccc(OCc4c(C)noc4C)c(OC)c3)CC2)cc1,4.2%,3.5%,-13.1%,-10.0,5.9%,-2.0,-4.7
CN1/C(=C\C(=S)NC(=O)c2ccccc2Cl)C(C)(C)c2ccccc21,0.0%,-22.4%,-2.6%,-15.5,u,15.8,23.8
Cc1ccc(C(=O)NN(C)c2nc3ccccc3nc2C(F)(F)F)cc1,0.0%,u,0.9%,-6.3,3.1%,3.5,36.0
Cc1ccccc1CN1CCN(S(=O)(=O)c2ccc(F)cc2)CC1,2.5%,1.5%,0.5%,-5.0,u,-1.0,14.5
Cc1ccc(NC(=O)Cc2nc(COC(=O)Cc3cccc(C(F)(F)F)c3)cs2)cc1,16.9%[15.4 µM],9.7%,-2.7%,11.8,x,x,24.9
COc1cc(CNCc2ccco2)cc(OC)c1O,-20.6%,0.5%,x,-2.8,7.6%,-1.5,22.5
COc1cccc(-c2csc(N3CCN(CC(=O)NNC(=O)c4ccc(Br)cc4)CC3)n2)c1,-7.5%,-2.5%,-3.0%,-6.0,9.8%,7.3,-9.5
CCn1nc(NS(=O)(=O)c2ccc([N+](=O)[O-])cc2)c2cc3ccccc3nc21,u,-23.7%,1.0%,21.0,14.1%,x,1.3
